RGS16-Gao: modulators of RGS16 binding to Galphao, primary screen, biochemical, human proteins, multiplexed bead flow cytometry | Regulator of G-protein signaling 16 (Homo sapiens) + Guanine nucleotide-binding protein … | bead-based flow cytometry RGS16-Galphao binding, fluorescence; actives lie on both sides | binding response (% of control), % at 10 µM | hit rate 0.38% among 220,000;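 active = below 25% or above 175%, edge rows of some plates excepted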;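 note: Galphao activated by GDP with aluminum fluoride before binding; 100% = wells without compound and 0% = beads without RGS; some results beyond the cut were filed as inactive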
Target sequence (O15492 whole entry, looked up): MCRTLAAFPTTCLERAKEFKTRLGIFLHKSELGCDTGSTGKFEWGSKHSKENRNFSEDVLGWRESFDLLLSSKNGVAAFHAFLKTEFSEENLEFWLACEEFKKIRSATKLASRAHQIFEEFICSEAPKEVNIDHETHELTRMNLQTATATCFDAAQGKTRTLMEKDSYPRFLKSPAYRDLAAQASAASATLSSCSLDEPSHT
Target sequence (P09471 whole entry, looked up): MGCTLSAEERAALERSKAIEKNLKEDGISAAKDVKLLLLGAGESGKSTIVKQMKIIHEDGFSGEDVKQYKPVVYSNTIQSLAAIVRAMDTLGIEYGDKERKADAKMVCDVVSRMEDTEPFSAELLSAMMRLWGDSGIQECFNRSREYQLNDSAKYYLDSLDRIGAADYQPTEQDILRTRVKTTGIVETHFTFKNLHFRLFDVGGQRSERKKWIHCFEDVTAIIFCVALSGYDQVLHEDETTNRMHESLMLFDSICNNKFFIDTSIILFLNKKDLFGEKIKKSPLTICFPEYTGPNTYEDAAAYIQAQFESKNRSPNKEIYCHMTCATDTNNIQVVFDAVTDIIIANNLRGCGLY
HSV replic up: enhancers of HSV replication in host cells, fold increase, host cell viability | HSV replication augmentation in cells | maximum fold increase | AID 1956, 2009 | hit rate 0.005% among 220,000;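 active = peak rise of 1.5-fold or more in the series; tested in PC3 cells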;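 note: first round at 10 µM; read as green reporter fluorescence; hits show the peak of a series up to 25 µM; 1 = signal of infected wells without compound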
PKD1 kinase inh: inhibitors of human PKD1 kinase, biochemical, fluorescence polarization; Serine/threonine-protein kinase D1 (Homo sapiens), Q15139; PKD1 kinase fluorescence polarization assay; inhibition, %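 (about 10 µM by stock and volumes)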; hit rate 0.056% among 200,000; AID 797, 2007;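 active = inhibition of 50% or more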;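 note: controls were vehicle for no effect and a reference inhibitor for full effect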
Insulin prom inh: inhibitors of insulin promoter-driven GFP, primary screen, imaging, TRM-6 cells (human fetal islet line), eGFP reporter, cell count | reporter expression induced with tamoxifen | inhibition, % at 2 µM | hit rate 0.9% among 130,000 | AID 1273, 2008;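 active = inhibition above the mean plus 3 SD, with well images judged a real hit on visual review, cut at about 60% in these data, passing the limit was not always enough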
GALR2 agonist: GALR2 receptor agonists, primary screen, cell-based; Galanin receptor type 2 (Homo sapiens), O43603; GALR2-expressing cells, agonist activation read-out; activation, %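 (tested at 5 µM)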; hit rate 0.48% among 140,000;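 active = above mean plus 3 SD of all compounds, about 5% in these data, not always enough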;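 note: 0% = vehicle buffer wells and 100% = reference agonist at full effect; tested in CHO reporter cells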
Target sequence (O43603 whole entry, looked up): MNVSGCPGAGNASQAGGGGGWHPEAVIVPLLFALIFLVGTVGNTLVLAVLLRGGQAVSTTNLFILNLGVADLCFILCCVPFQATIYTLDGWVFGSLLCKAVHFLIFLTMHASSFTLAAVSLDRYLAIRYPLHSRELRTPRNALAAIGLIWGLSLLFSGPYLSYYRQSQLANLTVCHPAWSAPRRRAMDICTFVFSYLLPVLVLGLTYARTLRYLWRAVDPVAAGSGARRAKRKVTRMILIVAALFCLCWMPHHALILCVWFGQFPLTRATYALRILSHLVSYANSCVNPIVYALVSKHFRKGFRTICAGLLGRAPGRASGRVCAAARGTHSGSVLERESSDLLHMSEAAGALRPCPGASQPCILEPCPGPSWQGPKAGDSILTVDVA
Insulin prom inh cell count: recorded beside Insulin prom inh, whose call it bears; normalized cell count, %; measured here: cell count, toxicity; reference of the scale not given here;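 cells exposed to compound for 48 h; stained nuclei by imaging scaled within each plate; lower means fewer cells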
HSV replic up primary fold: recorded beside HSV replic up, whose call it bears; fold increase; compound at 10 µM; measured here: primary screen fold increase 10 uM; tested in PC3 cells;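 GFP signal in the first replicate; 1 = infected wells without compound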
* = called active by the depositor; i = inactive; . = not tested or not shown; & = joins results of further samples. Random draw from the library; about 1.3% have a hit in one of these screens.

Start of the data: the first three compounds (preview)
Values run as follows: PKD1 kinase inh | Insulin prom inh cell count | RGS16-Gao | HSV replic up primary fold | HSV replic up | GALR2 agonist | Insulin prom inh
[1] COCC(=O)Nc1ccccc1NC(C)=O
→ 10 | 166 | 101 | 1.1 | i | -3.9 | -9
[2] C(=N\n1cnnc1)/c1ccc(N2CCOCC2)cc1
→ -1 | 97 | 104 | 0.88 | i | -1.6 | 9
[3] O=C1CC(C(=O)Nc2ccccc2)N=C(N2CCCCC2)N1 (centres undefined)
→ -3 | . | 99 | 0.92 | i | -0.9 | .

The listing, repeating the preview:
Values run as follows: PKD1 kinase inh | Insulin prom inh cell count | RGS16-Gao | HSV replic up primary fold | HSV replic up | GALR2 agonist | Insulin prom inh
[1] COCC(=O)Nc1ccccc1NC(C)=O
→ 10 | 166 | 101 | 1.1 | i | -3.9 | -9
[2] C(=N\n1cnnc1)/c1ccc(N2CCOCC2)cc1
→ -1 | 97 | 104 | 0.88 | i | -1.6 | 9
[3] O=C1CC(C(=O)Nc2ccccc2)N=C(N2CCCCC2)N1 (centres undefined)
→ -3 | . | 99 | 0.92 | i | -0.9 | .
[4] Cn1c(CSCc2ccccc2)nnc1SCC(=O)Nc1nccs1
→ -7 | 136 | 130 | 0.84 | i | -0.2 | -24
[5] N/C(=N\OC(=O)c1cccnc1)c1ccc(Cl)cc1Cl
→ 1 | . | 95 | 1 | i | . | .
[6] COc1ccc(CN2CCSCC2)cc1C
→ -2 | 78 | 98 | 1 | i | -0.4 | 33
[7] COc1cccc(Oc2ccc(N)cc2)c1
→ -5 | 96 | 105 | 1 | i | -0.4 | 0
[8] O=S(=O)(Nc1cccc(C(F)(F)F)c1)c1cnc[nH]1
→ -4 | . | 102 | 0.98 | i | -0.4 | .
[9] CCOc1ncccc1C(=O)OC(C)C(=O)Nc1ccc(CC)cc1 (centres undefined)
→ 6 | . | 94 | 0.98 | i | . | .
[10] Cc1nn(C(=O)C(C)N2C(=O)c3ccccc3C2=O)c(C)c1Br (centres undefined)
→ 5 | 96 | 80 | 0.96 | i | -2.2 | -57
[11] COc1ccc(OC)c(CN2CCN(C(=O)c3cccs3)CC2)c1
→ -8 | . | 105 | 0.81 | i | 0.5 | .
[12] C=CCn1c(SCC(=O)N2CCN(c3ccccc3)CC2)nnc1-c1ccco1
→ -3 | 77* | 101 | 0.93 | i | -1.7 | 77*
[13] Oc1ccc(-c2nc3cnccn3c2Nc2ccc3c(c2)OCCO3)cc1
→ 3 | . | 99 | . | . | -1.4 | .
[14] O=C(CSc1n[nH]c(=O)[nH]c1=O)N/N=C/C=C\c1ccccc1
→ -5 | 89 | 105 | 0.93 | i | . | -46
[15] CCCCN1C(=O)C2(NNc3ccccc3O2)c2ccccc21 (centres undefined)
→ 6 | 142 | 101 | 1.1 | i | -1.7 | -170
[16] CSCCC(NC(=O)c1cc(CC(C)C)oc1C)C(=O)O (centres undefined)
→ 6 | 95 | 101 | . | . | -1.5 | 0
[17] Cc1ccc(OCC(O)CN2CCN(Cc3ccc4c(c3)OCO4)CC2)c(C)c1 (centres undefined)
→ 13 | 105 | 102 | 0.78 | i | -1.7 | 0
[18] O=C(NCCCn1ncc2ccccc21)c1cc(COc2c(F)cccc2F)on1
→ -5 | 223 | 104 | 0.93 | i | . | -4
[19] Cc1cc(NC(=O)/C=C/C(=O)N(CC(=O)NC2CCCC2)c2ccc(F)cc2)no1
→ 0 | . | 102 | 0.8 | i | . | .
[20] Nc1c(C(=O)N2CCOCC2)sc(=S)n1-c1ccccc1
→ 0 | 163 | 78 | 0.88 | i | -3.6 | -12
[21] O=C(NCc1ccc(Cl)cc1)C1CCCO1 (centres undefined)
→ 0 | . | 101 | 0.94 | i | . | .
[22] CCc1nnc(NC(=S)Nc2ccccc2)s1
→ -5 | 117 | 100 | 1 | i | . | 36
[23] CCc1c(O)nc(SCC(=O)c2ccccc2)n(-c2ccccc2)c1=O
→ . | . | 91 | 0.98 | i | . | .
[24] OCCSc1nncn1/N=C/c1c[nH]c2ccccc12
→ -8 | 106 | 111 | 0.89 | i | -0.2 | 43
[25] CCC1=NNC(=O)C(CC(=O)Nc2ccccc2)c2cc(OC)c(OC)cc21 (centres undefined)
→ -11 | 86 | 103 | 0.87 | i | -1.6 | 28
[26] CNc1nc(Oc2ccc(C(=O)OC)cc2)nc(SC)n1
→ -2 | 47 | 89 | 0.79 | i | 0.5 | -494
[27] CC1=NN(c2ccccc2)C(=O)/C1=C\c1c(C)[nH]n(-c2ccccc2)c1=O
→ 4 | 91 | 97 | 0.91 | i | -4.5 | -6
[28] O=C(Nc1ccc(S(=O)(=O)Nc2ncccn2)cc1)c1cnc(Cl)c(Cl)c1
→ -2 | . | 100 | 0.98 | i | . | .
[29] COc1cc(NC(=O)C2CCCCC2)c2ncccc2c1
→ -9 | 156 | 110 | 0.96 | i | -2.5 | 70
[30] COc1ccccc1NC(=O)N1CCc2[nH]c3ccc(Cl)cc3c2C1
→ -10 | 140 | 100 | 0.67 | i | -0.3 | -4
[31] Cc1cc(C)c(C(=O)Nc2ccccc2)c(CC(C)(C)C(=O)O)c1
→ . | . | 102 | 0.89 | i | . | .
[32] Nc1nnc(SCCCC(=O)c2ccc(Br)cc2)s1
→ -8 | 117 | 99 | 1.1 | i | -0.6 | 22
[33] CC(=O)Cc1nsc(NC(=O)c2ccc(COc3ccccc3)o2)n1
→ -9 | . | 2 | 0.74 | i | -1.0 | .
[34] Cc1[nH]nc2c1C(CCc1ccccc1)C(C#N)=C(N)O2 (centres undefined)
→ . | . | 103 | 1.1 | i | . | .
[35] O=C(NCc1cccnc1)C1CC(=O)N(c2ccc(Cl)cc2)C1 (centres undefined)
→ -6 | 78 | 79 | 0.95 | i | -1.5 | 0
[36] Cc1cccc(-n2c(SCC(N)=O)nc3c(c2=O)C2(CCCCC2)Cc2ccccc2-3)c1
→ -3 | 133 | 68 | 0.8 | i | -0.5 | 27
[37] Cc1c(Cl)cccc1NC(=O)Nc1ccccc1C(N)=O
→ -4 | . | 100 | 0.96 | i | . | .
[38] CCN1C(=O)C(F)(CC)C(=O)c2ccccc21 (centres undefined)
→ 12 | . | 105 | 1 | i | -0.3 | .
[39] CCCCCCCC(=O)NNC(=O)c1c(O)c2ccccc2[nH]c1=O
→ . | . | 97 | 0.82 | i | . | .
[40] O=C(Nc1ccc(S(=O)(=O)Nc2ccccc2)cc1)C1COc2ccccc2O1 (centres undefined)
→ -5 | 134 | 100 | 0.95 | i | -2.7 | -31
[41] CCC1=NC(c2ccc(Br)cc2)N(O)C1(C)C (centres undefined)
→ 1 | . | 95 | 0.91 | i | . | .
[42] CCOC(=O)/C(=C/c1ccc(N2CCC(c3ccccc3)=N2)cc1)C(C)=O
→ -10 | . | 111 | 1 | i | 14* | .
[43] Cc1cc2ccccc2n1CCNC(=O)C(C)C
→ -1 | . | 98 | 1 | i | -0.6 | .
[44] Cn1c(NCc2ccco2)nc2c1c(=O)n(Cc1ccc(Cl)cc1Cl)c(=O)n2C
→ -2 | 70 | 95 | 0.86 | i | -0.8 | 31
[45] CCOC(=O)c1cc(C(=O)OCC)c2cccc(C)n2c1=O
→ 5 | 96 | 101 | 0.94 | i | -0.1 | 17
[46] Cc1cc(C(=O)NCCC2=CCCCC2)c(C)o1
→ -6 | 33 | 98 | 0.91 | i | -2.2 | -418
[47] Cc1nc2c3cc(F)ccc3n(Cc3ccc(F)cc3)c2s1
→ -7 | 116* | 104 | 0.63 | i | -0.1 | 77*
[48] COc1ccccc1Oc1nc2ccccn2c(=O)c1/C=C(\C#N)C(=O)Nc1c(C)n(C)n(-c2ccccc2)c1=O
→ . | . | 111 | 1.1 | i | . | .
[49] Cc1cc(C(=O)OCC(=O)NCc2ccccc2Cl)c(C)o1
→ -5 | 76 | 118 | 0.94 | i | . | 67
[50] COc1ccc(-c2c3c(=O)n(C)c(=O)n(C)c3cn2C2CCCCC2)cc1
→ -14 | 66 | 100 | 0.78 | i | -0.5 | 12
[51] CCOc1ccc2nc(Nc3nc(CSc4nnnn4-c4ccccc4)cc(=O)[nH]3)nc(C)c2c1
→ -7 | . | 106 | 0.78 | i | -1.0 | .
[52] Cn1c(=O)c(=O)n(C)c2cc(S(=O)(=O)NCCc3ccccc3)ccc21
→ -11 | . | 101 | 0.69 | i | -1.2 | .
[53] C#CC(C)(C)NC(=O)c1ccccc1OC
→ 8 | 110 | 110 | 1 | i | -1.2 | 15
[54] COc1ccc(S(=O)(=O)N(C)CC(=O)NC2CCCC2)cc1Cl
→ -5 | 77 | 104 | 0.8 | i | -1.0 | -52
[55] Cc1ccc(NC(=S)N(CCN(C)C)Cc2cccs2)cc1
→ 4 | . | 100 | 0.89 | i | . | .
[56] CC(NC(=O)NC1CCCCC1)C(c1cccs1)N1CCN(Cc2ccccc2)CC1 (centres undefined)
→ -2 | . | 102 | 0.86 | i | -1.0 | .
[57] COc1ccccc1C1OC(c2cccc([N+](=O)[O-])c2)=NN1C(C)=O (centres undefined)
→ 1 | 91 | 101 | 1 | i | . | 11
[58] CN1CCCc2cc3c(C(F)(F)F)cc(=O)oc3nc21
→ -5 | . | 99 | . | . | 1.4 | .
[59] O=C(Cc1cccc2ccccc12)N/N=C/c1ccncc1
→ -14 | . | 103 | 0.93 | i | . | .
[60] CN(C)c1ccc(N=C/C=C2/N(C)c3ccccc3C2(C)C)cc1
→ -13 | . | 100 | 1.1 | i | -1.5 | .

Only HSV replic up and GALR2 agonist, for some of the entries so far:
| No. | SMILES | HSV replic up | GALR2 agonist |
| --- | --- | --- | --- |
| 44 | Cn1c(NCc2ccco2)nc2c1c(=O)n(Cc1ccc(Cl)cc1Cl)c(=O)n2C | i | -0.8 |
| 45 | CCOC(=O)c1cc(C(=O)OCC)c2cccc(C)n2c1=O | i | -0.1 |

3 entries from above, with tabs:
no.	compound	PKD1 kinase inh	Insulin prom inh cell count	RGS16-Gao	HSV replic up primary fold	HSV replic up	GALR2 agonist	Insulin prom inh
41	CCC1=NC(c2ccc(Br)cc2)N(O)C1(C)C (centres undefined)	1	.	95	0.91	i	.	.
42	CCOC(=O)/C(=C/c1ccc(N2CCC(c3ccccc3)=N2)cc1)C(C)=O	-10	.	111	1	i	14*	.
43	Cc1cc2ccccc2n1CCNC(=O)C(C)C	-1	.	98	1	i	-0.6	.

Later entries:
Values run as follows: PKD1 kinase inh | Insulin prom inh cell count | RGS16-Gao | HSV replic up primary fold | HSV replic up | GALR2 agonist | Insulin prom inh
[61] Cc1ccc(OCC(=O)Nc2cc(-c3nn4c(C)nnc4s3)ccc2C)cc1
→ -5 | . | 99 | . | . | . | .
[62] C1CC1Cc1noc(CN2CCN(CC3CC3)CC2)n1
→ -3 | . | 111 | 1.1 | i | . | .
[63] COc1ccnc(Oc2ccccc2)n1
→ -7 | 142 | 96 | 0.98 | i | -1.1 | 33
[64] COc1cc(CN2CCC(CO)(CCOc3ccccc3)CC2)cc(OC)c1OC
→ 4 | . | 104 | 1 | i | . | .
[65] OC(COc1cccc(OCC(O)CN2CCOCC2)c1)CN1CCOCC1 (centres undefined)
→ -8&-4 | . | 106&150 | 1 | i | -1.8&0.3 | .
[66] O=C(Nc1ccc(S(=O)(=O)Nc2ncccn2)cc1)c1ccc(F)c(S(=O)(=O)N2CCOCC2)c1
→ . | . | 102 | 1.1 | i | . | .
[67] Cc1cc(NC(=O)CSc2ccc3ccccc3c2)no1
→ -9 | 43 | . | 1 | i | -1.2 | -13
[68] O=C(NNC(=O)c1ccccc1Cl)c1cccs1
→ 0 | 124 | 118 | 0.98 | i | -0.5 | -4
[69] CCOC(=O)c1ccccc1NC(=S)N1CCC(C(N)=O)CC1
→ 10 | . | 102 | 0.85 | i | . | .
[70] Cc1ccc(CCNC(=O)C2CCC(CNc3c(N4CCC(C)CC4)c(=O)c3=O)CC2)cc1 (centres undefined)
→ -5 | 46 | 70 | 1 | i | -1.4 | -75
[71] COc1ccc(Cc2c(O)nc(SCC(=O)N3CCOCC3)[nH]c2=O)cc1
→ . | . | 99 | 1.2 | i | . | .
[72] COc1ccc(S(=O)(=O)N2CCC(C(=O)Nc3ccc(F)cc3)CC2)c2cccnc12
→ -4 | 124 | 95 | 1.1 | i | . | 0

From PubChem
